Polio RdRp inh: poliovirus RNA polymerase inhibition. AID 588519. hit rate 0.66% among 150,000. poliovirus polymerase elongation, fluorescence polarization; active compounds read low. % elongation, % (compound at 16.7 µg/mL). P03300; in the data active = % elongation below about 90%; also: some results filed as inactive read as strong as hits
Mtb MbtI inh: inhibitors of Mycobacterium tuberculosis siderophore enzyme MbtI. P9WFX0. inhibition, %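 (about 17 µg/mL by stock and volumes)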. hit rate 0.89% among 100,000. purified MbtI enzyme, fluorescence intensity read-out;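 active = above 50% in both replicates, above 80% if mildly self-fluorescent; inactive = the rest, strongly fluorescent compounds included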;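 also: 0% = mean of negative and 100% = mean of positive controls; one replicate is shown; some compounds called inactive have numbers as strong as hits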
Target sequence (P9WFX0 whole entry, looked up): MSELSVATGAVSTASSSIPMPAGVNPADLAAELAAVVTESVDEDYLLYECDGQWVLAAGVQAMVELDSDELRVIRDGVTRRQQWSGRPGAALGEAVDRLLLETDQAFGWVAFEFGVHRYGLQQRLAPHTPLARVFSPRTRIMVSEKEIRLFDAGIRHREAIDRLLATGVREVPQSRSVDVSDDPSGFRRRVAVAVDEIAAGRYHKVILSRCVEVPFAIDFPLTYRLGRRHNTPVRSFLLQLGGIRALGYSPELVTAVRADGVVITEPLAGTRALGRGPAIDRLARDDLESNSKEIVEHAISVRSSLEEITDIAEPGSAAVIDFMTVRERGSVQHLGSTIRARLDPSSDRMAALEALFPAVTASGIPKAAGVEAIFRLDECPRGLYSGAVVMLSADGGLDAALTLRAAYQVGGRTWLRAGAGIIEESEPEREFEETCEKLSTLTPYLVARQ
Mtb MenB inh: inhibitors of Mycobacterium tuberculosis MenB enzyme. inhibition, %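 (about 12 µg/mL by stock and volumes)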. hit rate 0.43% among 100,000. MenB enzyme assay, absorbance read-out; some hits fall short of the stated cut;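 active = mean of two replicates above 30%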;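 also: 0% = no compound and 100% = wells with inactive enzyme; the first replicate is given; strong numbers were not always called active; inactives centre near -10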
Target sequence (P9WNP5 whole entry, looked up): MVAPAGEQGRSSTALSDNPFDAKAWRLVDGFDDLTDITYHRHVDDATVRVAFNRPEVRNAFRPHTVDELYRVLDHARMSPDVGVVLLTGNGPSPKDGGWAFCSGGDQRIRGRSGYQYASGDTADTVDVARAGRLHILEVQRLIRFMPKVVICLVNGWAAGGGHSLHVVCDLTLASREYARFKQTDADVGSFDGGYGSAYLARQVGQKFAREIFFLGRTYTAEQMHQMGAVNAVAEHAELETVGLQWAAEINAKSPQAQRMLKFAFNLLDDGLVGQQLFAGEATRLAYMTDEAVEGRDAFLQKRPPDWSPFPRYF
Polio RdRp inh intensity: second read-out of Polio RdRp inh, no call of its own (marks repeat the call); % elongation; measured here: total intensity read-out; formula for this scale not given here;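 total fluorescence in place of polarization; lower means less elongation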
* marks the source's active call; other numbers are inactive results; . = not tested or not shown.

Compound	Polio RdRp inh	Polio RdRp inh intensity	Mtb MbtI inh	Mtb MenB inh
CC(C)C1C(=O)OC2c3ccccc3C(=O)N21 (configuration not stated)	101.0	99.0	16.1	8.4
CSc1ccccc1N=Cc1c(O)[nH]c2ccccc12	99.0	103.0	-5.2	-149.1
CC(=O)NC(CC(=O)O)C(=O)O (configuration not stated)	99.0	102.0	-2.8	4.9
CCOc1ccc(S(=O)(=O)N(CC(=O)NCc2ccccc2)c2ccccc2)cc1	100.0	104.0	3.8	-47.0
CN(C)S(=O)(=O)c1ccc(C(=O)NNc2nc3ccccc3s2)cc1	100.0	103.0	5.7	-16.5
O=C(CCSc1ccccc1)c1cccs1	100.0	106.0	-0.2	0.7
CCCc1ccc(S(=O)(=O)N2CCNCC2)cc1	103.0	102.0	-14.1	1.9
Fc1ccc2nc(Nc3nc4ccccc4s3)sc2c1	104.0	105.0	4.4	-46.0
O=C1NC(=O)/C(=C\c2cccs2)S1	96.0	90.0	13.9	-28.0
COC(=O)Cn1c(=O)c2c(n(Cc3ccccc3)c1=O)NCC2=O	111.0	115.0	6.1	5.5
Cn1cnc2c(=O)oc3ccc(S(=O)(=O)N4CCCCC4c4cccnc4)cc3c21 (configuration not stated)	98.0	102.0	-5.9	-12.3
Cc1ccc(C2C(C#N)=C(SCC(=O)N3c4ccccc4CC3C)NC3=C2C(=O)CCC3)o1 (configuration not stated)	100.0	102.0	-10.8	-14.3
CC(=O)N(CC(=O)O)c1ccccc1	102.0	102.0	-0.1	1.1
O=C1Nc2ccccc2C(O)(C(=O)N2CCC3(CC2)OCCO3)N1c1ccccc1 (configuration not stated)	100.0	104.0	-12.0	2.6
Cn1c(CN2CCOCC2)nnc1Sc1c(-c2ccccc2)c2ccccc2[nH]c1=O	101.0	99.0	38.7	-0.9
CN(C(=O)COC(=O)c1ccc(Cl)nc1)c1ccccc1	105.0	109.0	-0.3	-18.8
CCN(CC)c1ccc(C(=O)NCCN)cc1	101.0	104.0	22.8	11.9
CCN(Cc1ccccc1)C(C)=O	109.0	110.0	.	-10.1
Cc1nc2ccc(S(=O)(=O)NCC(=O)NCc3ccccc3)cc2s1	100.0	102.0	-5.2	-9.6
O=C(CC1SC(N2N=C(c3ccccc3)CC2c2ccccc2)=NC1=O)Nc1ccccc1 (configuration not stated)	102.0	104.0	25.8	-12.3

Compound	Polio RdRp inh	Polio RdRp inh intensity	Mtb MbtI inh	Mtb MenB inh
COc1ccccc1NC(=O)N1CCN(c2cc(-c3ccccc3)nc3ncnn23)CC1	100.0	104.0	4.9	-23.8
Cc1cc(NC(=O)C(C)n2sc3ccccc3c2=O)ccc1Br (configuration not stated)	103.0	104.0	-4.2	3.0
Cc1ccc(C)c(/C(O)=C2\C(=O)C(=O)N(CCCn3ccnc3)C2c2cccnc2)c1 (configuration not stated)	100.0	110.0	.	12.7
COc1ccc(NC(=O)c2ccc(OC)nc2OC)cc1	101.0	105.0	-1.6	-15.5
CN(C)c1nc(N(C)C)nc(N2CC(=O)N(N)C2=N)n1	103.0	108.0	0.1	28.8
Cc1nc2c(sc3nc4c(c(-c5ccco5)c32)CCCC4)c(=O)o1	107.0	104.0	.	6.9
CCOC(=O)CSc1nc2c(c(C3CC=CCC3)c1C#N)CCC2 (configuration not stated)	100.0	103.0	-9.7	-15.0
Cc1cc2cc(CNC(=O)Cc3cccc4ccccc34)ccc2n1C	102.0	105.0	-3.8	-37.7
O=S1(=O)CCC(N=Cc2cn(-c3ccccc3)nc2-c2ccccc2)C1 (configuration not stated)	103.0	107.0	-2.4	3.4
CCOC(=O)C(C)Sc1nc(-c2ccc(OC)cc2)c(C#N)c(=O)[nH]1 (configuration not stated)	99.0	100.0	-4.6	-20.3
O=C(Cc1ccccc1)Nc1cccc(Cl)c1	100.0	99.0	-1.1	-18.8
CN1C2CC(=O)CC1C(O)C2 (configuration not stated)	101.0	101.0	-3.8	1.8
Cc1ccc(S(=O)(=O)c2nc(-c3ccco3)oc2SCc2ccccc2F)cc1	97.0	95.0	2.8	-52.7
Nc1nc2ccccc2n1CCN1CCCCC1	101.0	106.0	0.1	-15.9
O=C(Nc1ccc(SC(F)(F)F)cc1)c1ccccn1	102.0	97.0	-9.4	.
COc1ccc(NC(=O)CCCn2nnc3ccccc3c2=O)cc1	101.0	103.0	2.5	-12.3
CC(C)N1CC2(c3ccccc3)CN(C(C)C)CC(c3ccccc3)(C1)C2O (configuration not stated)	104.0	109.0	.	-8.4
COc1ccc(NC(=O)CC2SC3=NCCN3C2=O)cc1 (configuration not stated)	103.0	100.0	8.1	-15.9
COc1nc(C)ccc1-c1noc(-c2ccccc2)n1	101.0	105.0	10.4	49.9
CCOc1ccccc1N=C1S/C(=C\c2ccc(N(C)C)cc2)C(=O)N1CCN1CCOCC1	90.0	152.0	5.9	-23.2

Given with each value named: part of the list above
CN1C2CC(=O)CC1C(O)C2 (configuration not stated)
  Polio RdRp inh: 101.0; Polio RdRp inh intensity: 101.0; Mtb MbtI inh: -3.8; Mtb MenB inh: 1.8

COc1ccc(NC(=O)CC2SC3=NCCN3C2=O)cc1 (configuration not stated)
  Polio RdRp inh: 103.0; Polio RdRp inh intensity: 100.0; Mtb MbtI inh: 8.1; Mtb MenB inh: -15.9

(more compounds)
Compound	Polio RdRp inh	Polio RdRp inh intensity	Mtb MbtI inh	Mtb MenB inh
CCOC(=O)c1ccccc1NC(=S)N(C)Cc1ccccc1	100.0	99.0	6.3	-31.2
O=C(CCS(=O)(=O)c1cc2c(cc1Cl)NC(=O)CO2)Nc1cccc(Cl)c1	104.0	100.0	-8.3	-42.3
Cn1c(CNc2ccccc2)cc(=O)n(C)c1=O	101.0	99.0	-9.9	10.2
COc1ccc(CCNC(=O)c2ccc3c(c2)OCO3)cc1	105.0	101.0	-4.9	-64.8
C=CCN1C(=O)CSC1=Nc1ccc(O)cc1	105.0	102.0	-2.8	-31.3
CC(C)c1ccc2c(c1)c1c3n2CCN(CC#N)C3CCC1 (configuration not stated)	101.0	98.0	-144.9	-18.4
Oc1ccc2c(c1)C1CCCC1(N1CCOCC1)O2 (configuration not stated)	102.0	107.0	42.8	-7.1
Cc1ccc2nc(COC(=O)c3cccnc3Cl)cc(=O)n2c1	102.0	103.0	-43.0	-6.7
COc1ccc(/C=N/n2c(C)nc3ccccc3c2=O)cc1	100.0	97.0	6.5	-20.5
C=C(C)CC1N(c2ccccc2)C(=O)C2C(C(=O)O)C3C=CC21O3 (configuration not stated)	101.0	97.0	-8.4	.
Cc1c(Br)c(=O)[nH]c(=O)n1Cc1ccccc1	104.0	99.0	7.5	-16.4
CC(=O)Nc1ccc2c(c1)C(=O)N(C1CCCCC1)C2=O	99.0	103.0	183.4	-1.9
COc1ccc(CCC(=O)Nc2cccc(C)n2)cc1	99.0	110.0	.	3.2
Cn1c(SCC(=O)NCc2ccc(F)cc2)nc2ccccc21	104.0	103.0	32.0	-0.1
CCCc1cc(=O)oc2cc(OC(C(=O)OCC)c3ccccc3)c(Cl)cc12 (configuration not stated)	102.0	106.0	-16.8	-10.8
O=C(c1cc(-c2ccco2)on1)N(C1CCCCC1)C1CCCCC1	100.0	107.0	-3.5	-23.9
FC(F)(F)c1ccc(NCCN2CCOCC2)nc1	100.0	101.0	-15.6	5.6
NC[C@H]1O[C@H](OC2[C@@H](N)C[C@@H](N)[C@H](O[C@H]3O[C@H](CO)[C@@H](O)[C@H](N)[C@H]3O)[C@H]2O)[C@H](O)[C@@H](O)[C@@H]1O (some centres not stated)	97.0	100.0	-17.7	-1.1
CCn1c(CSc2nc3ccccc3s2)nnc1SCC(=O)c1c[nH]c2ccccc12	99.0	102.0	-1.0	-30.8
O=C(NCC1CCCO1)c1cccc(-c2ccc(O)cc2)c1 (configuration not stated)	100.0	100.0	3.4	12.8

Look-ups from the entries so far:
Entry of C=CCN1C(=O)CSC1=Nc1ccc(O)cc1 in Mtb MenB inh: -31.3
Entry of COc1ccc(/C=N/n2c(C)nc3ccccc3c2=O)cc1 in Polio RdRp inh: 100.0
Entry of CC(=O)Nc1ccc2c(c1)C(=O)N(C1CCCCC1)C2=O in Mtb MbtI inh: 183.4
Entry of CCOC(=O)c1ccccc1NC(=S)N(C)Cc1ccccc1 in Polio RdRp inh: 100.0
Entry of COc1ccc(CCNC(=O)c2ccc3c(c2)OCO3)cc1 in Mtb MbtI inh: -4.9
Entry of Cc1ccc2nc(COC(=O)c3cccnc3Cl)cc(=O)n2c1 in Mtb MbtI inh: -43.0
Entry of O=C(c1cc(-c2ccco2)on1)N(C1CCCCC1)C1CCCCC1 in Mtb MenB inh: -23.9

Further entries:
Values run as follows: Polio RdRp inh, Polio RdRp inh intensity, Mtb MbtI inh, Mtb MenB inh
- C#CCSc1nc2ccccc2n1C(=O)c1ccc(S(=O)(=O)N2CCOCC2)cc1
  100.0, 101.0, -7.2, -20.8
- COc1ccc(CCN2C(=O)CC(N3CCCC(C(F)(F)F)C3)C2=O)cc1 (configuration not stated)
  109.0, 108.0, 10.9, -29.9
- Cc1cc(C)nc(NN=C2CCCC2)n1
  121.0, 119.0, -3.1, -51.5
- CC(=O)Nc1c(C(=O)O)oc2ccc(Br)cc12
  108.0, 106.0, ., -14.3
- CC(C)C(NS(=O)(=O)c1ccccc1)C(=O)O (configuration not stated)
  102.0, 110.0, -19.8, 5.9
- COc1cc2c(cc1OC)C(C)N(C(=O)c1cc3c(s1)-c1c(C)cccc1OC3)CC2 (configuration not stated)
  102.0, 104.0, 105.8, -14.6
- CCCn1c(CCNC(=O)c2cccc(C)c2)nc2ccccc21
  99.0, 104.0, 8.0, -13.7
- CCn1c(CNC(=O)N2CCCCC2)nnc1SC
  102.0, 104.0, -2.0, -9.9
- N#C/C(=C/c1cn(CC(N)=O)c2ccccc12)c1ccc(F)cc1
  99.0, 100.0, 11.4, -36.8
- CC1(C)Oc2ccc(C(=O)Nc3ccc4c(c3)CCC4)cc2NC1=O
  102.0, 100.0, 0.4, -42.9
- Oc1ccccc1C=Nc1ccccc1N1CCCCC1
  102.0, 98.0, -10.0, .
- O=C1CCc2cc(S(=O)(=O)NC3CCCCCC3)cc3c2N1CCC3
  105.0, 105.0, 9.8, -14.9
- CCOc1ccc2[nH]c(=O)c(CN(Cc3ccccc3)C(=O)N3CCOCC3)cc2c1
  102.0, 101.0, 2.7, 28.2
- COC(=O)C1=C(c2ccccc2)Nc2ncnn2C1c1ccccc1F (configuration not stated)
  100.0, 101.0, -8.8, -5.8
- O=S1(=O)CC(N2CCCC2)c2ccccc21 (configuration not stated)
  108.0, 107.0, -9.8, 6.8

Values run as follows: Polio RdRp inh, Polio RdRp inh intensity, Mtb MbtI inh, Mtb MenB inh
- NCCNC12CC3CC(CC(C3)C1)C2
  101.0, 103.0, ., -4.2
- Cc1cc(C)n(CC(=O)NN=C2CCCCCC2)n1
  106.0, 106.0, -0.6, -8.7
- Cc1ccc(S(=O)(=O)N(C)c2ccc3sc(C)nc3c2)cc1
  107.0, 104.0, -5.4, -10.5
- CCOc1ccccc1N1Cc2ccccc2C1
  100.0, 107.0, 29.1, -4.3
- Cc1ccc(NCc2nc3ccccc3n2C)c(C)c1
  98.0, 105.0, -3.4, 2.2
- Cc1ccc(C)c(OCC(=O)Nc2ccc(-c3nnc(-c4ccco4)o3)cc2)c1
  102.0, 102.0, -111.2, -32.4
- CN(C)C=NC(=S)c1ccc(-c2cccs2)s1
  101.0, 97.0, 108.7, -45.6
- CC(=O)NC1(c2ccccc2)CCN(CC(=O)Nc2c(C)n[nH]c2C)CC1
  102.0, 102.0, -12.6, -43.6
- CC(OC(=O)c1cccc(S(C)(=O)=O)c1)C(=O)Nc1ccccc1C#N (configuration not stated)
  100.0, 103.0, 4.5, -0.9
- COC(=O)C(=CC(C)C)C(=O)OC
  100.0, 101.0, 5.7, -33.9
- CC(C)Cn1c(SCC(=O)Nc2ccc3c(c2)OCO3)nc(O)cc1=O
  110.0, 113.0, 2.3, -82.3
- O=C(O)CC12CC3CC(C1)CC(n1cncn1)(C3)C2
  101.0, 103.0, 1.4, -27.9
- O=C(O)CCC(=O)Nc1nc(-c2ccccc2)cs1
  102.0, 98.0, 1.3, -9.5
- CC(Oc1ccc(S(=O)(=O)NCc2ccccn2)cc1)C(=O)NC1CCCCC1 (configuration not stated)
  101.0, 102.0, 7.2, -35.3

Compound activity as filed in PubChem BioAssay.
